TRPV1 potentiator: HTS Assay for Compounds that Act as Potentiators of the Vanilloid Receptor 1; Transient receptor potential cation channel subfamily V member 1 (Homo sapiens), Q8NER1; TRPV1-expressing cells, Fluo-8 calcium influx, capsaicin EC20 potentiation; host cell line not named in the record; control for the full effect not named in the record; potentiation, % at 8.33 µM; actives 0.02% (n = 320,000); active means potentiation above 80%; inconclusive means 30% to 80%; inactive means below 30%; also: 0% is about no effect
Target sequence (Q8NER1 whole entry, looked up): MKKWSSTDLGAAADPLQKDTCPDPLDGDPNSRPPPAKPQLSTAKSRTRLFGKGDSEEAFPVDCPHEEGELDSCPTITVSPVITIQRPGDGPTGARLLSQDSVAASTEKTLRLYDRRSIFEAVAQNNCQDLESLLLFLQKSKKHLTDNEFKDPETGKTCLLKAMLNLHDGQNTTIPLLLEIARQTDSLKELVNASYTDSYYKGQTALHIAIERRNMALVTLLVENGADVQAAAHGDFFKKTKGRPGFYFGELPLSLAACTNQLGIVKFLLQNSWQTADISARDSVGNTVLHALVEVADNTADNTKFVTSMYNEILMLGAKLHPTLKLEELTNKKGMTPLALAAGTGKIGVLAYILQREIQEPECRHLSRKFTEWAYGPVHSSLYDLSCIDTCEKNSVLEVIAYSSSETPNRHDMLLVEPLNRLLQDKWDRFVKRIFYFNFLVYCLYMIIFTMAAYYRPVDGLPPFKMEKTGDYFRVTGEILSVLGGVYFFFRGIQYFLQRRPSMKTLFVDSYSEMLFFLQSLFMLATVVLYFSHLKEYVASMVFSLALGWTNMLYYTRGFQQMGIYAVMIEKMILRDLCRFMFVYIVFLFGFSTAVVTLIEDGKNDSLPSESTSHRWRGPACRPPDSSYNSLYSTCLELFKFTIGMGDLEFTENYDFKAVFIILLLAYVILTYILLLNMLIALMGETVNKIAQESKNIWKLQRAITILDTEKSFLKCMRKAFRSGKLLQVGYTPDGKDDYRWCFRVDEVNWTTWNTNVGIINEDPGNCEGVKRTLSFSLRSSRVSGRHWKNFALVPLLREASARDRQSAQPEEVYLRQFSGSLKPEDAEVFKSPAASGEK
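TRPV1-expressing cells were cultured overnight at 35.5C and loaded with Fluo-8 calcium dye for 40 to 90 min at room temperature. After a 10 s baseline, compound was added and calcium influx was read kinetically for 3 min (ex 480/em 520 nm).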
Sfp inh: qHTS Assay for Inhibitors of Bacillus subtilis Sfp phosphopantetheinyl transferase (PPTase). Potency, µM, without a hit: max response, negative = inhibition, usual class: inhibitors. 4'-phosphopantetheinyl transferase ffp (Bacillus subtilis), Q9F4F7. actives 3.5% (n = 310,000). Biochemical Sfp PPTase activity, qHTS; active = well fitted inhibition curve with a large enough effect; inconclusive = small, poorly fitted or top-dose-only effect, or another doubt; inactive = no such curve, though single readings can be large or run the other way;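 also: the enzyme is Sfp with the accession as filed and its product quenches rhodamine fluorescence; potency is read from the fitted curve at half-maximal effect; 0% = enzyme reaction without inhibitor and -100% = no enzyme wells; top concentration of the series not given in the record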
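Step 1, compound plus 15 nM Sfp-PPTase, 15 min, room temperature. Step 2, add rhodamine-CoA (5 uM) and BHQ-2-YbbR (12.5 uM). Step 3, read 525/598 nm fluorescence at 0 and 30 min.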
Menin MLL FP FL: qHTS Assay for Inhibitors Targeting the Menin-MLL Interaction in MLL Related Leukemias: Competition With Fluorescein Labeled MLL-derived Peptide; Fluorescence polarization, fluorescein-MLL peptide displacement from menin; FP activity change, % at 61.4 µM; 290,000 tested, under 10 active; AID 1766, 2009; inconclusive = falling polarisation curve, or a change in total fluorescence; inactive = total fluorescence flat and polarisation flat or rising; no compound was filed as active; the % refers to the polarisation; negative = inhibition;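 also: % of control where 0% means no effect; inhibitors lower the polarisation; unlabelled MLL peptide was the positive control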
gsp antagonist: qHTS for Antagonists of gsp, the Etiologic Mutation Responsible for Fibrous Dysplasia/McCune-Albright Syndrome: qHTS. gsp-mutant cells, cAMP HTRF, 30 min; control for the full effect not named in the record. Potency, µM (titrated, usually from 76.9 µM), for the others: at the top dose activity change, negative = inhibition, most hits filed as inhibitors. actives 0.4% (n = 340,000). AID 624288, 2012; active = falling curve of any shape with a large fitted effect; inconclusive = falling curve, mostly with a smaller effect; inactive = flat or rising curve; cell line not stated here;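 also: intracellular cAMP measured with PDE inhibitor Ro 20-1724 present during compound exposure; potency is read from the fitted curve at half-maximal effect; % is scaled to controls: 0 for no effect and ±100 for the full control effect; nearly all actives have a fitted effect of over 65% in size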
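HTRF cAMP read-out (cAMP-d2 plus anti-cAMP antibody-K in lysis buffer, 30 min RT). Before lysis, cells are exposed to compounds with […] for 30 min at 37C in DPBS containing Ca/Mg, BSA and Tween 20.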
ClpP mod: qHTS Assay for Activators of ClpP; ATP-dependent Clp protease proteolytic subunit (Bacillus subtilis (strain 168)), P80244; purified B. subtilis ClpP, FRET peptide cleavage, 20 min; Potency, µM (top dose mostly 57.5 µM), inactives show at the highest dose activity change, negative = active; actives 1.9% (n = 340,000); active = well fitted falling curve with a large enough effect; inconclusive = small, poorly fitted or top-dose-only effect; inactive = no such curve, though single readings can be large or run the other way; also: potency is read from the fitted curve at half-maximal effect; the source files actives as falling curves though it sought activators and does not explain the sign; nearly all actives have a fitted effect of over 65% in size; many hits overshoot -100%
Target sequence (P80244 whole entry, looked up): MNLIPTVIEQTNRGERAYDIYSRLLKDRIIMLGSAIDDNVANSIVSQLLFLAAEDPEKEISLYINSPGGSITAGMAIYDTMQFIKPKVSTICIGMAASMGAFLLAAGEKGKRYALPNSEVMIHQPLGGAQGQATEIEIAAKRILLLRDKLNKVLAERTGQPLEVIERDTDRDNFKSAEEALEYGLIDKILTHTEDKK
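FRET quenching reversal measured ClpP activation: 10 microg/mL B. subtilis ClpP at pH 8 with the FRET-FV decapeptide, read at 430 nm after 320 nm excitation. The 20-min minus 0-min signal was scaled between DMSO/no-enzyme wells and ADEP (5.8 microM final).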
gsp agonist: qHTS for Agonist of gsp, the Etiologic Mutation Responsible for Fibrous Dysplasia/McCune-Albright Syndrome: qHTS | gsp mutant cells, cAMP HTRF, 30 min; control for the full effect not named in the record | Potency, µM (titrated, usually from 76.9 µM), inactives show top-dose activation (cAMP increase), actives largely listed as activators | actives 0.13% (n = 340,000); active = well fitted activation curve with a large enough effect; inconclusive = small, poorly fitted or top-dose-only effect, or another doubt; inactive = no such curve, though single readings can be large or run the other way; cell line not stated here;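 also: phosphodiesterase inhibitor Ro 20-1724 added with compounds to block cAMP breakdown; potency is read from the fitted curve at half-maximal effect; nearly all actives have a fitted effect of over 60% in size; about a fifth of the inactives were tested at one dose only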
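Cells in DMEM/10% FBS with G418 were pretreated with compounds in DMSO plus […] (300 uM stock) for 30 min at 37C. cAMP was measured by HTRF (cAMP-d2 plus anti-cAMP antibody-K) after 30 min at room temperature.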
CtBP-E1A inh: qHTS Assay for Inhibitors of the CtBP/E1A Interaction; CtBP / adenovirus E1A interaction (AlphaScreen); AlphaScreen GST-E1A/His-CtBP binding, 1536-well; stronger effect = lower value; control for the full effect not named in the record; activity change, % (no concentration beside the values); actives 0.49% (n = 340,000); in the data active means activity change below about -65%; inconclusive means about -30% to -65%; inactive means above about -30%; also: % is scaled to controls: 0 for no effect and ±100 for the full control effect; compound concentration not given in the record
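Homogeneous bead-based format: GST-tagged E1A captured on glutathione donor beads, His-tagged CtBP on nickel acceptor beads; compounds precede bead addition by 2 h at 37 °C.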
Active calls of the source: *; u = inconclusive; x = not tested or not shown; & = joins results of further samples; [ ] = dose if it differs, or a comment.

SMILES	TRPV1 potentiator	Sfp inh	Menin MLL FP FL	gsp antagonist	ClpP mod	gsp agonist	CtBP-E1A inh
COc1ccc(/C=N/N=C2/NC(=O)C(CC(=O)O)S2)cc1OCc1ccc(Cl)cc1Cl (centres undefined)	11	-26%	3.1	5%	1.4%	-53%[inhibitor]	2
O=C(O)C1CCCCC1C(=O)NCc1ccc2c(c1)OCO2 (centres undefined)	8	10%	-5.2	6%	x	-9%[15.4 µM]	1
Cc1ccc(NC(=O)CCS(=O)(=O)c2cccc3nonc23)cc1Cl	1	6%	-9.1	-12%	-2.5%	5%[15.4 µM]	-2
O=[N+]([O-])c1ccc(Cl)c(CN2CCCCCC2)c1	-2	-4%	-0.1	3%	-2.3%	-33%[15.4 µM]	-21
COc1ccc(N/C=C\C(=O)c2ccc3c(c2)OCO3)cc1OC	25	-9%	2.4	-2%	1.2%	-7%	-26
CCN(c1cc(C)cc(C)c1)S(=O)(=O)c1nnc(NC(=O)c2ccco2)s1	3	9%	x	-13%	-8.3%&-6.1%	14%	9
C/C=C(/C)C(=O)O[C@@H]([C@H](O)c1cc2ccc(=O)oc2cc1OC)C(C)(C)O[C@@H]1O[C@H](CO)[C@@H](O)[C@H](O)[C@H]1O	x	x	x	11%	4.4%	x	4
O=C(Cn1cc(C(=O)c2ccco2)c2ccccc21)Nc1ccccc1	4	u	2.1	-23%	-1.0%&-2.5%	16%	-9
Cc1nnc2ccc(N3CCN(c4ccccn4)CC3)nn12	1	2%	1.8	2%	0.4%	u	-28
CCOC(=O)N1CCN(C(=O)c2ccc3c(=O)n(-c4ccc(OC)cc4OC)c(=S)[nH]c3c2)CC1	x	-29%	0.1	u	0.5%	-8%	5
COc1ccc(CC(NC(C)=O)C(=O)NC2CCN(C(=O)C3CC3)CC2)cc1OC (centres undefined)	-2	16%	1.2	2%	-2.1%	u	-8
Cc1oc(/N=C/c2ccc(O)cc2O)c(C#N)c1C	-13	-19%	u	5%	-2.1%	1%	5
COC(=O)c1cc(COc2ccc3ccc(=O)oc3c2)c(C)o1	7	13%	1.4	-4%	14µM*	25%	-12
CCOCCCNC(=O)CSc1nc2nc(C)c(Cc3ccccc3)c(C)n2n1	9	13%	-0.7	-10%	x	-4%	6
CN(C)CCN1C(=O)C(=O)/C(=C(/O)c2ccc(S(=O)(=O)N3CCOCC3)cc2)C1c1ccc(Br)cc1 (centres undefined)	-11	11%	x	-9%	-1.8%	-12%	-8
Cc1ccc(N2C(=O)C3CC(c4ccccc4)=C4C5C=CC(C6C(=O)N(c7ccc(C)cc7C)C(=O)C56)C4C3C2=O)c(C)c1 (centres undefined)	-1	14%	0.8	8%	0.1%	-50%[inhibitor]	-5
COc1ccc(Cl)cc1NC(=O)CSc1nnc(COc2ccccc2)n1N	10	2%	2.2	-17%	-4.0%	-36%[inhibitor]	-3
Cc1nn(C(=O)CCC(=O)NCc2ccc(OC(C)C)cc2)c2ccccc12	1	-4%	x	14%	1.4%	-25%	1
CC1CCN(CC(O)COc2ccc(-c3ccccc3)cc2)CC1 (centres undefined)	5	7%	6.4	-14%	1.1%	9%	u
CC(C)CCn1nnnc1C(c1ccc(N(C)C)cc1)N1CCN(C(=O)c2ccco2)CC1 (centres undefined)	10	-6%	2.3	-1%	1.3%	-1%	-13
COc1cc(-c2nn3c(C4CCCCC4)nnc3s2)cc(OC)c1OC	23	u	-1.3	6%	-23%	u	-1
CCCc1nc(S(=O)(=O)Cc2ccc(Cl)cc2Cl)n[nH]1	7	5%	1.2	u	0.0%	-2%	3
O=C(CCC1CCCN(C(=O)c2ccc3c(c2)OCO3)C1)N1CCN(c2ccccn2)CC1 (centres undefined)	2	-5%	0.1	-8%	x	26%	0
CN(CC(=O)Nc1ccc(F)cc1)CC(=O)N1CCCC1	9	x	x	-6%	2.4%	-7%	-14
c1ccc(-c2csc(N3CCN(c4ccccn4)CC3)n2)cc1	-5	-17%	-0.9	u	3.2%	-7%	-9
CC(C)(C)C1CCC(OC(=O)CN2CCOCC2)CC1 (centres undefined)	-15	4%	-0.2	11%	1.7%	u	9
COc1ccc(CNC(=O)c2cc(S(=O)(=O)N3CCOCC3)cn2C)cc1	-5	20%	0.0	7%	-1.7%	0%	-6
COC(=O)c1nc2nc(-c3cccs3)cc(C(F)(F)F)n2n1	-8	3%	-7.1	-1%	x	u	1
CCN(CC)C(=O)C(=O)Nc1ccc(Oc2ccccc2)cc1	14	-16%	0.0	5%	x	9%[15.4 µM]	6
Cc1ccc(-c2nn(-c3ccccc3)cc2/C=N/n2c(-c3ccncc3)n[nH]c2=S)cc1	-10	19%	0.5	-1%	x	5%[15.4 µM]	5

A draw from above in order of length of the SMILES, descending:
SMILES	TRPV1 potentiator	Sfp inh	Menin MLL FP FL	gsp antagonist	ClpP mod	gsp agonist	CtBP-E1A inh
Cc1ccc(-c2nn(-c3ccccc3)cc2/C=N/n2c(-c3ccncc3)n[nH]c2=S)cc1	-10	19%	0.5	-1%	x	5%[15.4 µM]	5
Cc1nn(C(=O)CCC(=O)NCc2ccc(OC(C)C)cc2)c2ccccc12	1	-4%	x	14%	1.4%	-25%	1
CN(CC(=O)Nc1ccc(F)cc1)CC(=O)N1CCCC1	9	x	x	-6%	2.4%	-7%	-14

Continued.
SMILES	TRPV1 potentiator	Sfp inh	Menin MLL FP FL	gsp antagonist	ClpP mod	gsp agonist	CtBP-E1A inh
Cc1cc(NC(=O)CSCC(=O)N2CCN(c3cccc(C(F)(F)F)c3)CC2)no1	12	x	x	-19%	1.2%	20%	8
CSC(=NS(=O)(=O)c1ccc(N)cc1)NS(=O)(=O)c1cccs1	x	x	x	1%	x	16%	-3
COc1ccc(Nc2ncc3c(n2)CC(c2ccccc2)CC3=O)cc1 (centres undefined)	2	16%	2.3	-26%	59%	5%	7
CC(C)C[C@H](NC(=O)c1cc2cc(Cl)ccc2n1C)C(=O)N1CCC(C(=O)O)CC1	-3	17%	3.2	-3%	x	9%[15.4 µM]	-18
CCN(c1ccccc1)S(=O)(=O)c1cccc(C(=O)NCC(c2ccco2)N2CCCCC2)c1 (centres undefined)	x	x	x	-9%	x	-12%[15.4 µM]	-10
CC1CCN(S(=O)(=O)c2ccc(NC(=O)CN3CCN(C)CC3)cc2)CC1	5	-10%	-0.2	4%	-1.4%	-52%[inhibitor]	1
CCN(CC)c1ccc(NC(=O)COc2ccccc2C)cc1S(=O)(=O)Nc1ccccc1OC	19	20µM*	1.6	11%	-12%	u	3
CCCCN1C(=O)C(CC(=O)NCCN2CCOCC2)CC(C(=O)N2CCOCC2)=C1C (centres undefined)	x	x	x	x	-0.4%	u	-7
Cc1ccc(C)n1-c1ccc(N2CCOCC2)c([N+](=O)[O-])c1	6	-5%	0.1	-11%	-4.1%	-3%	-27
Cc1ccc(CCNC(=O)CS(=O)Cc2nc(-c3cccc(C)c3)oc2C)cc1 (centres undefined)	-5	6%	0.6	-8%	-3.1%	-11%	0
Cc1c(NC(=O)COC(=O)c2cc(-c3cccc4ccccc34)nc3ccccc23)c(=O)n(-c2ccccc2)n1C	9	1%	-14	-19%	-14%	-10%	4
O=[N+]([O-])c1ccc(N2CCNCC2)cc1NCc1cccnc1	23	-7%	4.2	u	1.3%	19%	2
CCn1c(CNC(=O)c2cccc(C)c2)nnc1SCC(=O)NC1=NCCS1	1	7%	x	5%	x	-4%[15.4 µM]	-3
Cc1ccc2[nH]c(=O)c(CN(Cc3nnnn3C3CCCC3)C3CCCCC3)cc2c1	-2	-11%	2.1	-4%	-9.0%	-1%	8
NC(=O)CSc1nc2sc3c(c2c2ncnn12)CCCC3	9	12%	4.5	6%	-7.1%	6%	-25
Cc1ccc(C(C(=O)NCCc2ccccc2)N(C(=O)c2csnn2)C2CC2)cc1 (centres undefined)	-13	-3%	x	6%	-11%	15%[15.4 µM]	2
Cc1c(Cl)c(C(=O)NC2C3CC4CC(C3)CC2C4)nn1C (centres undefined)	-6	16%	2.1	11%	-2.9%	11%	1
COc1cc2c(cc1NC(=O)C(C)N1CCN(S(=O)(=O)c3ccccc3[N+](=O)[O-])CC1)oc1ccccc12 (centres undefined)	3	-5%	3.9	-5%	-5.7%	-19%	2
Cc1cc(Cl)ccc1OCCCC(=O)Nc1cccnc1	-5	-17%	-1.2	-7%	1.8%	7%	4
CNC(=O)COC(=O)c1ccc2c(c1)S(=O)(=O)c1ccccc1C2=O	2	18%	1.5	5%	x	-2%[15.4 µM]	-13
COc1ccc(CCNC(=O)c2cc(-c3ccccc3)c(N3CCOCC3)s2)c(OC)c1OC	7	17%	-1.4	32µM*	-18%	-18%	x
Cc1nc(SCC(=O)Nc2cc(C)on2)c2c3c(sc2n1)CCCC3	22	-15%	15	1%	-0.3%	20%	1
Cc1cc(C)cc(-n2ncc3c2CCCC3NC(=O)c2ccccc2)c1 (centres undefined)	x	x	x	x	-4.5%	u	-1
COc1cc(C2CC(=O)Oc3cc4c(cc32)OCO4)cc(OC)c1OC (centres undefined)	x	13%	0.4[94.6 µM]	11%	-0.6%	x	0
Cc1cc(C(F)(F)F)cc(NNC(=O)NC(=O)c2ccc(Cl)cc2)n1	2	16%	3.8	8%	x	5%[15.4 µM]	3
COc1ccccc1C1=NOC(C)(c2nnc(-c3cccc(Cl)c3)o2)C1 (centres undefined)	x	x	x	-13%	-0.1%	-1%	-1
O=C1NC(=O)/C(=C\c2cn(Cc3ccccc3F)c3ccccc23)N1	u	-27%	u	8%	x	-4%[15.4 µM]	12

Assay outcomes deposited in PubChem by National Center for Advancing Translational Sciences (NCATS).
